Ecoli growth: blocks Escherichia coli growth. AID 1053175. OD600, 23 h; stronger effect = lower value. OD600 absorbance (concentration not given with the values). 330,000 compounds, 0.21% hits;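 active = OD600 absorbance below the run mean of sample wells minus 3.6 SD, in any replicate, cut at about 0.56 in these data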;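 also: stock transfer was 300 nL into about 60 µL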
UCH37 inh: human UCH37 deubiquitinating enzyme inhibition; purified proteasome/UCH37, Ub-AMC cleavage fluorescence; inhibition, % (concentration not given with the values); 330,000 compounds, 0.33% hits; AID 588478;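 active = mean of two replicates above 20%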;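 also: 0% = compound-free wells with enzyme and 100% = wells lacking proteasome; stock transfer was 100 nL into about 20 µL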
Target sequence (Q9Y5K5 whole entry, looked up): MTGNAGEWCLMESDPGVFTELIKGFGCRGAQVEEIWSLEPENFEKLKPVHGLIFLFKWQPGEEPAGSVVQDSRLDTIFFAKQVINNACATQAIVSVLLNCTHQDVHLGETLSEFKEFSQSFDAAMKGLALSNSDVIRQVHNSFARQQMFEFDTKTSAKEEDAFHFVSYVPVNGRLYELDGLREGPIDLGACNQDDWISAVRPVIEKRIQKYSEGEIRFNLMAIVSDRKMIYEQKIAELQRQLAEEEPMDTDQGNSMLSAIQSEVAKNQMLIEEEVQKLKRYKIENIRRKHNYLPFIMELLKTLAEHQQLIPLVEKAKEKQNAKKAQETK
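assay system = human UCH37 enzyme supplied as purified proteasome complex | amount = proteasome at 0.15 nM in the dispensed enzyme solution | schedule = 30 min compound-proteasome preincubation then 25 min substrate reaction, room temperature | measured by = fluorescence, ex 355 nm, em 460 nm | benchmarks = no-proteasome wells (full inhibition) and compound-free wells (no inhibition)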
* = called active by the depositor.

For O=C(Cc1n[nH]c(=O)[nH]c1=O)NN=Cc1cccc(O)c1 the results were Ecoli growth 0.73 and UCH37 inh 0.3.
Cc1ccc(S(=O)(=O)NN=C2C(=O)C3(C)CCC2C3(C)C)cc1 (stereo unspecified) was read as Ecoli growth 0.699 and UCH37 inh 5.5.
Screening COc1ccc(C=NNC(=O)c2ccccc2)cc1OS(=O)(=O)c1ccccc1 returned Ecoli growth 0.698 and UCH37 inh 5.0.
COc1ccc(C=NN2CCN(c3ccc(Cl)cc3)CC2)cc1 was read as Ecoli growth 0.645 and UCH37 inh 6.1.
For Oc1cccc(C=NN2CCCCC2)c1O the results were Ecoli growth 0.679 and UCH37 inh 0.5.
For CC12CCC(CC1=NOC(=O)c1ccc(F)cc1)C2(C)C (stereo unspecified) the results were Ecoli growth 0.717 and UCH37 inh 3.2.
Screening Cc1cc(C)nc(NN=C/C(Cl)=C/c2ccccc2)n1 returned Ecoli growth 0.634 and UCH37 inh 13.9.
O=C(NN=Cc1cccc(O)c1)c1cc(C2CC2)nc2ccccc12 was read as Ecoli growth 0.675 and UCH37 inh 4.9.
C=CCc1c(C)nc(C)nc1NN=Cc1ccc(F)cc1 was read as Ecoli growth 0.783 and UCH37 inh 10.5.
For C/C(=C/C=NNc1nc(N2CCCCC2)nc(N2CCCCC2)n1)c1ccccc1 the results were Ecoli growth 0.74 and UCH37 inh 7.0.

The final 2 entries of the section before lead into the next:
C=CCc1c(C)nc(C)nc1NN=Cc1ccc(F)cc1 was read as Ecoli growth 0.783 and UCH37 inh 10.5.
For C/C(=C/C=NNc1nc(N2CCCCC2)nc(N2CCCCC2)n1)c1ccccc1 the results were Ecoli growth 0.74 and UCH37 inh 7.0.
Screening COc1ccc(C(C)=NNC(=O)CNC(=O)C(c2ccccc2)c2ccccc2)c(OC)c1 returned Ecoli growth 0.627 and UCH37 inh 0.9.
`CCC(=NNC(=O)c1ccc2c(c1)OCO2)C12CC3CC(CC(C3)C1)C2` gave Ecoli growth 0.741 and UCH37 inh 1.3.
For COC(=O)c1c(C)[nH]c(C=NNc2ccccc2)c1C the results were Ecoli growth 0.646 and UCH37 inh 1.6.
COc1ccc(CC(=O)NN=C(C)c2cccc(NC(=O)C3CC3)c2)cc1 was read as Ecoli growth 0.661 and UCH37 inh 2.1.
`COc1ccc(NS(=O)(=O)c2cccc(C(=O)NN=Cc3ccccc3OC)c2)cc1` gave Ecoli growth 0.699 and UCH37 inh 1.5.
Screening COc1ccc(C=NNC(=O)COc2cccc3ccccc23)c(C(=O)O)c1OC returned Ecoli growth 0.691 and UCH37 inh 2.9.
For O=C(NC(Cc1c[nH]c2ccccc12)C(=O)NN=Cc1ccc(Br)cc1)c1cccs1 (stereo unspecified) the results were Ecoli growth 0.716 and UCH37 inh 0.9.
`CC(CC(=O)NC(C)(C)C)=NNC(=O)c1ccco1` gave Ecoli growth 0.64 and UCH37 inh 0.8.
`Cc1nn(Cc2ccccc2)c(Cl)c1C=NNC(=O)c1cccnc1` gave Ecoli growth 0.648 and UCH37 inh 2.6.
`Nc1nnnn1N=Cc1cccc(O)c1` gave Ecoli growth 0.716 and UCH37 inh 0.7.
For COC(=O)COc1ccc(C=NNC(=O)CN(c2ccccc2OC)S(=O)(=O)c2ccccc2)cc1 the results were Ecoli growth 0.69 and UCH37 inh 3.0.
Cc1ccc(C=NNC(=O)NC2CCCCC2)o1 was read as Ecoli growth 0.716 and UCH37 inh 6.4.
`CCOC(=O)N1CCN(C(=O)C(=O)NN=Cc2ccc(OC)cc2OC)CC1` gave Ecoli growth 0.625 and UCH37 inh 5.7.
Screening O=C(CCn1nnc2ccccc21)NN=CCc1ccccc1 returned Ecoli growth 0.723 and UCH37 inh -1.0.
`O=C(NCCCNCc1ccccc1)C(=NO)c1ccccc1` gave Ecoli growth 0.716 and UCH37 inh 1.2.
`COc1cccc(C=NNc2nccnc2Cl)c1O` gave Ecoli growth 0.646 and UCH37 inh 10.3.
O=C(Nc1ccccc1C(=O)NN=Cc1ccco1)c1ccc(Cl)cc1 was read as Ecoli growth 0.674 and UCH37 inh -3.3.
`COc1ccc2nc(N=C(N)NC(=O)N3c4ccccc4Sc4ccccc43)nc(C)c2c1` gave Ecoli growth 0.682 and UCH37 inh -48.4.
Screening O=C(O)c1ccccc1NN=CC1=C(N2CCOCC2)/C(=C\c2ccccc2)CC1 returned Ecoli growth 0.711 and UCH37 inh 0.4.
`COc1cc(-c2n[nH]c(=S)n2N=Cc2cccn2C)cc(OC)c1OC` gave Ecoli growth 0.709 and UCH37 inh 7.3.

Gathered by group: the entries above with an aryl methoxy group.
Screening COc1ccc(C=NNC(=O)c2ccccc2)cc1OS(=O)(=O)c1ccccc1 returned Ecoli growth 0.698 and UCH37 inh 5.0.
COc1ccc(C=NN2CCN(c3ccc(Cl)cc3)CC2)cc1 was read as Ecoli growth 0.645 and UCH37 inh 6.1.
Screening COc1ccc(C(C)=NNC(=O)CNC(=O)C(c2ccccc2)c2ccccc2)c(OC)c1 returned Ecoli growth 0.627 and UCH37 inh 0.9.
COc1ccc(CC(=O)NN=C(C)c2cccc(NC(=O)C3CC3)c2)cc1 was read as Ecoli growth 0.661 and UCH37 inh 2.1.
`COc1ccc(NS(=O)(=O)c2cccc(C(=O)NN=Cc3ccccc3OC)c2)cc1` gave Ecoli growth 0.699 and UCH37 inh 1.5.
Screening COc1ccc(C=NNC(=O)COc2cccc3ccccc23)c(C(=O)O)c1OC returned Ecoli growth 0.691 and UCH37 inh 2.9.
For COC(=O)COc1ccc(C=NNC(=O)CN(c2ccccc2OC)S(=O)(=O)c2ccccc2)cc1 the results were Ecoli growth 0.69 and UCH37 inh 3.0.
`CCOC(=O)N1CCN(C(=O)C(=O)NN=Cc2ccc(OC)cc2OC)CC1` gave Ecoli growth 0.625 and UCH37 inh 5.7.
`COc1cccc(C=NNc2nccnc2Cl)c1O` gave Ecoli growth 0.646 and UCH37 inh 10.3.
`COc1ccc2nc(N=C(N)NC(=O)N3c4ccccc4Sc4ccccc43)nc(C)c2c1` gave Ecoli growth 0.682 and UCH37 inh -48.4.
`COc1cc(-c2n[nH]c(=S)n2N=Cc2cccn2C)cc(OC)c1OC` gave Ecoli growth 0.709 and UCH37 inh 7.3.

Next part:
For CC1=NNC(=O)C1CCC(=O)NN=Cc1ccc(Cl)cc1 (stereo unspecified) the results were Ecoli growth 0.681 and UCH37 inh 4.8.
O=C(CNc1ccccc1)NN=Cc1c(O)ccc2ccccc12 was read as Ecoli growth 0.656 and UCH37 inh 3.2.
COc1ccccc1/C=C/C=NNC(=O)CCn1cnc2ccccc21 was read as Ecoli growth 0.661 and UCH37 inh 2.9.
CC1(C)N=C2C(=NO)CCCC2=[N+]1[O-] was read as Ecoli growth 0.713 and UCH37 inh 3.4.
CC1Oc2ccccc2C=C1C=NNC(=O)c1ccccc1O (stereo unspecified) was read as Ecoli growth 0.69 and UCH37 inh -6.1.
CC1=C(C)C(=NOC(=O)/C=C/c2ccccc2)C=CC1=O was read as Ecoli growth 0.769 and UCH37 inh 6.9.
CC(=NNC(=O)c1c(C)nc2ccccn12)c1ccccc1F was read as Ecoli growth 0.69 and UCH37 inh 4.3.
Screening O=C(O)c1cccc(NN=Cc2ccc(OC(F)(F)F)cc2)c1 returned Ecoli growth 0.671 and UCH37 inh 10.2.
For COc1ccc2c(c1)[nH]c1c(=O)n(N=Cc3ccc(OC)c(COc4ccccn4)c3)cnc12 the results were Ecoli growth 0.676 and UCH37 inh 5.6.
Screening CC1CC(=NO)C(C)CN1 (stereo unspecified) returned Ecoli growth 0.695 and UCH37 inh 0.3.
For CCC(=NNC(=S)NC(C)C)c1ccc(OC(F)F)cc1 the results were Ecoli growth 0.685 and UCH37 inh 2.3.
`O=C(NCc1ccccn1)C(=NO)c1ccccc1` gave Ecoli growth 0.743 and UCH37 inh 6.0.
`Cc1cc(C(=O)NN=C/C=C/c2ccc([N+](=O)[O-])cc2)n[nH]1` gave Ecoli growth 0.646 and UCH37 inh 6.9.
`S=C(NCc1ccco1)NN=Cc1ccncc1` gave Ecoli growth 0.665 and UCH37 inh 7.1.
`CC(=NNC(=O)c1ccc(C)s1)c1cccc(NC(=O)COc2ccc(Cl)cc2C)c1` gave Ecoli growth 0.714 and UCH37 inh -6.0.
CCCCCCCC#Cc1ccccc1C=NS(=O)c1ccc(C)cc1 (stereo unspecified) was read as Ecoli growth 0.753 and UCH37 inh -0.2.
Screening CCc1ccc(-c2cc(C(=O)NN=Cc3ccco3)[nH]n2)cc1 returned Ecoli growth 0.637 and UCH37 inh -0.3.
For Cc1nccn1CC(=O)NN=Cc1cccs1 the results were Ecoli growth 0.684 and UCH37 inh 2.1.
For COc1ccc(C(C)=NNC(=O)c2ccncc2)cc1 the results were Ecoli growth 0.695 and UCH37 inh 5.9.
`Cc1nc2ccccc2c(=O)n1N=Cc1cn(-c2ccccc2)nc1-c1cccs1` gave Ecoli growth 0.783 and UCH37 inh 1.0.
`Cc1ccsc1C=NNC(=O)c1nnn(-c2nonc2N)c1-c1ccc2c(c1)OCO2` gave Ecoli growth 0.631 and UCH37 inh -0.9.
Screening COC(=O)NN=Cc1cn(Cc2ccc(Cl)cc2Cl)c2ccccc12 returned Ecoli growth 0.699 and UCH37 inh 5.5.
CN1CCN(C=NC2=C(C#N)C(c3ccccc3)C3=C(CC(C)(C)CC3=O)O2)CC1 (stereo unspecified) was read as Ecoli growth 0.654 and UCH37 inh 5.8.
CC(CC(=O)Nc1cc(Cl)ccc1Cl)=NNC(N)=S was read as Ecoli growth 0.697 and UCH37 inh 1.3.
For COc1cc(C=NNC(=O)C(=O)/C=C2\NC(C)(C)Cc3ccccc32)ccc1O the results were Ecoli growth 0.724 and UCH37 inh 6.9.
`O=C(NN=Cc1ccc(Cl)cc1Cl)c1ccc(-n2cnnn2)cc1` gave Ecoli growth 0.744 and UCH37 inh 1.7.
For CCOc1cccc(-c2c(C(=O)NN=Cc3cccs3)nnn2-c2nonc2N)c1 the results were Ecoli growth 0.644 and UCH37 inh 2.6.
`CC(=NNC(N)=S)c1ccccc1` gave Ecoli growth 0.675 and UCH37 inh 1.4.
For CC(=NNC(=O)C1CC1)c1ccc(NC(=O)c2ccc(Br)o2)cc1 the results were Ecoli growth 0.697 and UCH37 inh 3.2.
O=C(Nc1nnc(N=Cc2ccco2)s1)c1ccc(F)cc1 was read as Ecoli growth 0.698 and UCH37 inh 6.1.
COc1ccc(C(=O)NCC(=O)NN=C/C=C/c2ccccc2)cc1OC was read as Ecoli growth 0.709 and UCH37 inh 3.0.
`Cn1ncc(C#N)c1N=CN1CCCC1` gave Ecoli growth 0.683 and UCH37 inh 4.6.
Cc1[nH]c2ccccc2c1C=NNc1ccccn1 was read as Ecoli growth 0.668 and UCH37 inh -0.7.
`Cc1ncc(CO)c(C=NNC(=S)Nc2ccc(C(C)C)cc2)c1O` gave Ecoli growth 0.667 and UCH37 inh -42.6.
Screening COCCCNC(=S)NN=Cc1ccccc1O returned Ecoli growth 0.624 and UCH37 inh -35.1.
Screening Cc1nn(Cc2ccc(Cl)cc2)c(Cl)c1C=NNC(=O)CNc1ccccc1F returned Ecoli growth 0.739 and UCH37 inh -0.9.
`O=C(Cc1ccccc1)NN=Cc1ccccc1OCc1ccc(Cl)cc1` gave Ecoli growth 0.752 and UCH37 inh 2.0.
`COc1ccc(Cc2nc3ccccc3n2CC(=O)NN=Cc2ccccc2)cc1OC` gave Ecoli growth 0.676 and UCH37 inh 1.2.
Screening CC(CC(=O)NC1CCCC1)=NNC(=O)Cc1csc(N)n1 returned Ecoli growth 0.707 and UCH37 inh 4.1.
Screening Cn1c(=NNC(=O)c2ccccc2F)sc2ccccc21 returned Ecoli growth 0.663 and UCH37 inh 7.3.
For C=CCOc1ccc(C=NNC(=O)C(C)Sc2ccccn2)cc1OCC (stereo unspecified) the results were Ecoli growth 0.62 and UCH37 inh 3.2.
`CC(=NNC(=O)c1nnn(-c2nonc2N)c1-c1ccccc1)c1ccncc1` gave Ecoli growth 0.648 and UCH37 inh -0.2.
O=C(CSc1ncccn1)NN=Cc1ccccc1[N+](=O)[O-] was read as Ecoli growth 0.675 and UCH37 inh 4.7.
Screening Cc1ccnn1CC(=O)NN=Cc1ccc([N+](=O)[O-])s1 returned Ecoli growth 0.597 and UCH37 inh 11.2.
`Cc1ccccc1NN=Cc1c(C)nc2ccccn12` gave Ecoli growth 0.602 and UCH37 inh -19.0.
Screening CC(=NNC(=O)c1cccc([N+](=O)[O-])c1)c1ccco1 returned Ecoli growth 0.704 and UCH37 inh 5.3.
Screening Cc1ccc(S(=O)(=O)N2CCC(C(=O)NN=Cc3cccnc3)CC2)cc1 returned Ecoli growth 0.683 and UCH37 inh -0.3.
`CC(=NNC(=O)Cc1ccc(Cl)cc1)c1ccc(F)cc1` gave Ecoli growth 0.703 and UCH37 inh 0.1.
For COC(=O)C=c1sc2ncnn2c1=O the results were Ecoli growth 0.75 and UCH37 inh 0.1.
Screening COc1ccc(OC)c(NC(=O)C(=O)NN=Cc2ccccc2[N+](=O)[O-])c1 returned Ecoli growth 0.7 and UCH37 inh 4.3.
Screening Cc1cccc2c1[nH]c1nc(NN=Cc3ccco3)nnc12 returned Ecoli growth 0.699 and UCH37 inh 0.8.
`CCN(CC)c1ccc(C=NNC(=O)c2ccoc2C)cc1` gave Ecoli growth 0.675 and UCH37 inh -124.1.
For COc1ccc(C=NNC2=NS(=O)(=O)c3ccccc32)cc1 the results were Ecoli growth 0.659 and UCH37 inh 15.0.
N#CC(=NNc1ccc(S(=O)(=O)N2CCCCCC2)cc1)C(N)=S was read as Ecoli growth 0.651 and UCH37 inh 9.2.
Screening Cc1ccc(C(C)C)c(OCc2ccc(C(=O)NN=Cc3ccc(C(=O)O)cc3)cc2)c1 returned Ecoli growth 0.629 and UCH37 inh -25.0.
Screening CCOC(=O)NN=C1CC(C)S(=O)(=O)c2ccc(Cl)cc21 (stereo unspecified) returned Ecoli growth 0.634 and UCH37 inh 3.7.

Source: PubChem BioAssay (ICCB-Longwood Screening Facility, Harvard Medical School)

An excerpt; count on the stated rates, not on these rows.
